Cruzain inh noDet – inhibitors of Trypanosoma cruzi cruzain without detergent; P25779; purified cruzain, Z-FR-AMC fluorescence, no detergent; Potency, µM, for the others: max response, negative = inhibition, usual class: inhibitors; 200,000 compounds, 2.3% hits; AID 1476; active = well fitted curve in the direction sought with a large enough effect; inconclusive = small, poorly fitted or top-dose-only effect, or another doubt; inactive = no such curve, though single readings can be large; an effect the other way counts as inactive or inconclusive;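 also: plate controls were enzyme without inhibitor for no effect and buffer without enzyme for full effect; nearly all actives have a fitted effect of over 40% in size; top concentration of the series not given in the record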
Target sequence (P25779 123-467 limits assumed): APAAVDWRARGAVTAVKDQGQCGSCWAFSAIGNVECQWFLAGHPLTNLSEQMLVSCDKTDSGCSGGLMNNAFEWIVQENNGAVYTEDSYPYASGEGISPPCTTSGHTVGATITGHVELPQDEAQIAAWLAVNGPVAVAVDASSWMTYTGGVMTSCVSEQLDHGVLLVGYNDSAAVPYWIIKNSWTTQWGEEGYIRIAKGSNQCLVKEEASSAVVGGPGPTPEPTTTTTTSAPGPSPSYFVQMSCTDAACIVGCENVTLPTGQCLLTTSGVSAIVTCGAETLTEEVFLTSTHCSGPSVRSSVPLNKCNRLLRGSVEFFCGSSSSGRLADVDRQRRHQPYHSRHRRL
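Purified cruzain at 1.5 nM, pre-incubated 15 min with compound at room temperature in 100 mM sodium acetate pH 5.5, 5 mM DTT, 0.00005% Triton X-100. Reaction started with 2 uM Z-FR-AMC; AMC fluorescence increase over 60 s gives rate.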
NS1 inh – inhibitors of influenza NS1 protein function. S. cerevisiae slowed by influenza A NS1, growth recovery by OD600. Potency, µM (titrated, usually from 46.1 µM), inactives show at the top dose activity, positive = more growth. 270,000 compounds, 0.4% hits. AID 2326; also: actives are rising curves; nearly all actives have a fitted effect of over 50% in size
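In this qHTS, NS1 from influenza A is expressed in budding yeast, where it slows growth. Cells are switched from glucose to 2% galactose medium (pH 6.0, -URA), treated with compound, and growth recovery is read at OD600.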
LASV entry inh – Lassa virus entry inhibition | Lassa virus pseudotype entry inhibition, cell reporter; control for the full effect not named in the record | Potency, µM (doses to about 37.9 µM), for inactives: at the top dose activity change, negative = inhibition, hits mostly inhibitors | 300,000 compounds, 1.2% hits; active means well fitted inhibition curve with a large enough effect; inconclusive means small, poorly fitted or top-dose-only effect, or effect the other way; inactive means flat fitted curve, though single readings scatter; tested in HEK293 cells; also: % is scaled to controls: 0 for no effect and ±100 for the full control effect; nearly all actives have a fitted effect of over 50% in size; luciferase read-out
Cruzain inh Det – blocks cruzain activity in presence of Triton detergent; purified cruzain, Z-FR-AMC fluorescence, 0.01% Triton; 200,000 compounds, 0.43% hits; Potency, µM, without a hit: max response, negative = inhibition, actives largely listed as inhibitors; active = well fitted curve in the direction sought with a large enough effect; inconclusive = small, poorly fitted or top-dose-only effect, or another doubt; inactive = no such curve, though single readings can be large; an effect the other way counts as inactive or inconclusive;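 also: plate controls were neutral wells for no effect and buffer without enzyme for full effect; nearly all actives have a fitted effect of over 40% in size; top concentration of the series not given in the record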
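Enzyme 1.5 nM, Z-FR-AMC 2 uM, NaOAc 100 mM pH 5.5, DTT 5 mM, Triton X-100 0.01%; 15 min RT compound preincubation; kinetic ex360/em450, 60 s delta.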
MARV entry inh – inhibitors of Marburg virus binding or cell entry; AID 540276; 300,000 compounds, 1.8% hits; Potency, µM (top dose mostly 37.8 µM), inactives show at the highest dose activity change, negative = inhibition, actives largely listed as inhibitors; Marburg virus pseudotyped entry inhibition, cell reporter; control for the full effect not named in the record; about a third of the inactives were read at about 46 µM; active = well fitted inhibition curve with a large enough effect; inconclusive = small, poorly fitted or top-dose-only effect, or effect the other way; inactive = flat fitted curve, though single readings scatter; tested in HEK293 cells; about a fifth of its hits are not listed in these tables; also: % is scaled to controls: 0 for no effect and ±100 for the full control effect; luciferase read-out
RE007 growth inh – less growth of the S. pombe RE007 Vpr strain; S. pombe RE007 Vpr strain, BacTiter-Glo ATP luminescence, 24 h; control for the full effect not named in the record; Potency, µM (titrated, usually from 92.2 µM), for the others: at the highest dose activity change, negative = less growth; 360,000 compounds, 0.21% hits; AID 651644; active = well fitted falling curve with a large enough effect; inconclusive = small, poorly fitted or top-dose-only effect; inactive = no such curve, though single readings can be large or run the other way;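 also: % is scaled to controls: 0 for no effect and ±100 for the full control effect; nearly all actives have a fitted effect of over 50% in size; the assay follows cell death caused by Vpr and the record does not say whether a fall means rescue or toxicity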
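Fission yeast strain RE007, carrying one chromosomally integrated HIV-1 vpr copy, was seeded at OD 0.01 in PMG+AL medium with 23 nL pinned compound. After 24 h at 30 °C and 99% humidity, viability was read by BacTiter-Glo luminescence.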
StopGo reporter – FMDV 2A StopGo reporter, luciferase signal; Potency, µM (doses to about 57.9 µM), for the others: at the highest dose signal change, negative = less light; AID 1159524; human cells with a luciferase reporter of 2A StopGo recoding; control for the full effect not named in the record; 410,000 compounds, 1.2% hits; active = well fitted falling curve with a large enough effect; inconclusive = small, poorly fitted or top-dose-only effect; inactive = no such curve, though single readings can be large or run the other way; tested in HEK293T cells; also: % is scaled to controls: 0 for no effect and ±100 for the full control effect; nearly all actives have a fitted effect of over 45% in size; luciferase light after 4 h
SARS PLpro yeast – SARS-CoV PLP inhibition in yeast; S. cerevisiae expressing SARS-CoV PLpro, growth rescue; control for the full effect not named in the record; Potency, µM (top dose mostly 32.9 µM), for inactives: at the top dose activity, positive = growth rescue; 330,000 compounds, 0.19% hits; AID 485353; also: 0% is about no effect; nearly all actives have a fitted effect of over 55% in size; growth read by luminescence after 48 h
The depositor's hits bear a star; ? = inconclusive; nt = not tested or not shown; [ ] = remark or other dose. Unless noted, calls follow the shape of the dose curve; as a rule, active means well fitted rising curve with a large enough effect; inconclusive means small, poorly fitted or top-dose-only effect; inactive means no such curve, though single readings can be large or run the other way. Potency is read from the fitted curve at half-maximal effect. Compounds were not picked by outcome, and some 4.5% of all compounds hit somewhere here.

Each structure is followed by: Cruzain inh noDet | NS1 inh | LASV entry inh | Cruzain inh Det | MARV entry inh | RE007 growth inh | StopGo reporter | SARS PLpro yeast
Nc1nc(-c2cccnc2)nn1C(=O)c1ccccc1Cl
    nt | 4% | 19%[46.1 µM] | nt | 1%[46.1 µM] | 14% | -7% | -1%
CC(=O)c1cccc(S(=O)(=O)N2CCC(C(=O)O)(c3ccccc3)CC2)c1
    nt | 4% | 16%[46.1 µM] | nt | 7%[46.1 µM] | 6% | -14% | 18%
Cc1cc(C(F)(F)F)nc(SCCN2CCCCC2)c1C#N
    nt | 6% | 2% | nt | -17% | -25% | -1% | 4%
COCC(C)n1c(SCC(=O)NNC(=O)c2ccccc2)nc2ccccc2c1=O (configuration not stated)
    2% | -3% | -3% | -1.3% | -6% | -21% | 0% | 6%
O=C(Nc1ccc(F)cc1F)c1cc(-c2ccco2)on1
    ? | -10% | 5% | 3.5% | 18% | 10% | 63%[activator] | -5%
Cc1cc(N2CCCCC2)ccc1[N+](=O)[O-]
    -19% | -9% | 13% | -13% | 8% | -11% | -15% | 12%
CC(NC(=O)c1cnc2n(c1=O)CCS2)c1ccccc1 (configuration not stated)
    -9% | -21% | -5% | 0.5% | 23%[46.1 µM] | -15% | 7% | 3%
COc1ccccc1N=C1SC(C)CN1C(=O)C1CCC1 (configuration not stated)
    -1% | -6% | nt | 2.4% | nt | nt | nt | 4%
COc1ccc(CCNC(=O)CSc2nnc3ccccn23)cc1
    nt | 2% | -21% | nt | 5%[46.1 µM] | -5% | -3% | -5%
Cc1ccc(C(=O)COC(=O)CNC(=O)c2ccc(N3C(=O)c4ccccc4C3=O)cc2)cc1C
    -7% | 13% | -1% | -1.7% | 8%[46.1 µM] | 10% | -15% | -4%
Cc1sc(NC(=O)c2sc3nc4c(C)cccc4cc3c2N)c(C#N)c1C
    ? | ? | 4% | -26% | ? | -4% | 1% | 4%
O=C(NCCN1CCOCC1)Nc1cccc(Cl)c1
    nt | nt | ? | nt | 3%[46.1 µM] | 17% | 15% | -3%
CN=C(Nc1cc(C)nn1-c1ccccc1)c1ccccc1F
    3% | 2% | -10% | 4.7% | 3% | -5% | -5% | -1%
COc1cccc(NC(=O)Cn2c(=O)n(-c3ccccc3)c(=O)c3ccc(C(=O)NCc4ccc5c(c4)OCO5)cc32)c1
    ? | nt | 3%[46.1 µM] | -3.5% | ? | nt | 21% | nt
Cc1noc(C)c1CSCC(=O)NC1=NCCS1
    4% | 2% | -24% | -0.5% | 9% | -10% | -4% | 4%

Each structure is followed by: Cruzain inh noDet | NS1 inh | LASV entry inh | Cruzain inh Det | MARV entry inh | RE007 growth inh | StopGo reporter | SARS PLpro yeast
Cc1ccc(N2C(=O)c3ccccc3C2=O)cc1Cl
    0% | -9% | -5% | -2.9% | 10% | -4% | 20% | 5%
O=C(COC(=O)COc1cccc(Br)c1)Nc1c(Cl)cccc1Cl
    3% | -9% | 2% | -9.0% | 13%[46.1 µM] | 10% | -1% | -13%
COc1ccc(Cn2nnc3c(=O)[nH]c(C4CCN(S(=O)(=O)c5ccc(C)cc5)CC4)nc32)cc1
    nt | 4% | nt | nt | nt | -7% | -6% | 0%
CC(=O)NNC(=S)NC(=O)c1ccccc1
    nt | nt | 2% | nt | -8%[46.1 µM] | -15% | 8% | -1%
Cc1ncc([N+](=O)[O-])n1CCOC(=O)Nc1ccc(Cl)c(Cl)c1
    -16% | ? | -11% | -12% | -13% | -4% | -25% | 5%
O=c1c2c3c(sc2nc(N2CCNCC2)n1CCc1ccccc1)CCCCC3
    nt | 6% | 9% | nt | -14% | 3% | 1% | -1%
Cc1ccc(S(=O)(=O)NNC(=O)Nc2ccc(C)c(C)c2)c(C)c1
    nt | 8% | nt | nt | nt | -2% | -3% | -1%
O=C(c1c(F)cccc1F)N1CCC(O)(c2cccnc2)CC1
    0% | -6% | -1% | -4.8% | 13% | 7% | -10% | 2%
CCOC(=O)c1ccc(N2C(=O)c3n[nH]c(C)c3C2c2ccc(O)c(OC)c2)cc1 (configuration not stated)
    11% | nt | -24%[46.1 µM] | -6.0% | -8%[46.1 µM] | nt | -22% | nt
CCOc1ccc(CCNC(=O)c2ccc(CS(=O)(=O)Cc3ccccc3Cl)o2)cc1OCC
    9% | nt | ? | 3.1% | nt | nt | ? | nt
COc1cc(CNc2ccccc2SC)ccc1O
    -9% | -19% | 19%[14.3 µM] | 2.0% | -13% | -5% | 15% | 2%
N#Cc1cccc(NC(=O)Cn2cnc(S(=O)(=O)N3CCc4ccccc43)c2)c1
    nt | -8% | nt | nt | nt | -9% | -3% | -12%
CN1CCc2c(sc3ncn4nc(-c5ccccc5O)nc4c23)C1
    -20% | -5% | nt | -19% | nt | nt | nt | 3%
COCCCNc1nc(NCc2ccc(C)cc2)c2cnn(C)c2n1
    -1% | nt | -7%[46.1 µM] | -3.3% | nt | nt | 0% | nt
CN(CCc1cn[nH]c1)C(=O)CC1C(=O)NCCN1Cc1cccc(Oc2ccccc2)c1 (configuration not stated)
    nt | 3% | ? | nt | ? | 10% | 4% | 0%

Filtered by structure, those above with a cyano group.
Each structure is followed by: Cruzain inh noDet | NS1 inh | LASV entry inh | Cruzain inh Det | MARV entry inh | RE007 growth inh | StopGo reporter | SARS PLpro yeast
Cc1cc(C(F)(F)F)nc(SCCN2CCCCC2)c1C#N
    nt | 6% | 2% | nt | -17% | -25% | -1% | 4%
Cc1sc(NC(=O)c2sc3nc4c(C)cccc4cc3c2N)c(C#N)c1C
    ? | ? | 4% | -26% | ? | -4% | 1% | 4%
N#Cc1cccc(NC(=O)Cn2cnc(S(=O)(=O)N3CCc4ccccc43)c2)c1
    nt | -8% | nt | nt | nt | -9% | -3% | -12%

Returning to the listing with the 2 entries that preceded the break.
Each structure is followed by: Cruzain inh noDet | NS1 inh | LASV entry inh | Cruzain inh Det | MARV entry inh | RE007 growth inh | StopGo reporter | SARS PLpro yeast
COCCCNc1nc(NCc2ccc(C)cc2)c2cnn(C)c2n1
    -1% | nt | -7%[46.1 µM] | -3.3% | nt | nt | 0% | nt
CN(CCc1cn[nH]c1)C(=O)CC1C(=O)NCCN1Cc1cccc(Oc2ccccc2)c1 (configuration not stated)
    nt | 3% | ? | nt | ? | 10% | 4% | 0%
C=CCn1c(O)c(CN2CCCCC2)c(C)c(C#N)c1=O
    nt | nt | -8%[46.1 µM] | nt | -16%[46.1 µM] | 1% | 8% | 2%
CCc1ccc(OCC(=O)N(Cc2ccc(C)o2)C2CCS(=O)(=O)C2)cc1 (configuration not stated)
    -4% | nt | -4%[46.1 µM] | -3.3% | 15%[46.1 µM] | nt | -13% | nt
CCn1cc(Cl)c(C(=O)N2N=C(c3ccc4ccccc4c3)CC2c2ccccc2O)n1 (configuration not stated)
    ? | 23% | ? | -8.7% | ? | 9% | -25% | 7%
Cc1ccc(NC(=S)N2CCC(N(C)CC3CCCO3)CC2)cc1 (configuration not stated)
    nt | nt | 16% | nt | 9%[46.1 µM] | -8% | -7% | -6%
CC(=NCCCn1ccnc1)c1c(O)n(C)c(=O)n(C)c1=O
    4% | 0% | -22% | 2.5% | -6% | -19% | -13% | -3%
CCOC(=O)c1ccccc1NC(=O)COC(=O)C1CCCC1
    nt | nt | -18% | nt | 1% | -19% | -3% | -9%
Cc1cc(CNC(=O)c2cc(-c3ccccc3)nc3ccccc23)nn1C
    nt | -9% | -25% | nt | 9%[46.1 µM] | -11% | -10% | 0%
S=C(Nc1ccccc1)Nc1nc2ccccc2n1CCOc1ccc(Br)cc1
    7.9µM* | 25% | 15% | 2.6% | ? | 4% | -6% | ?
CCN1CCN(CCNC(=O)c2ccc3c(c2)N(Cc2ccc(F)cc2)C(=O)c2ccccc2S3=O)CC1 (configuration not stated)
    nt | 0% | -25%[46.1 µM] | nt | ? | 12% | -6% | 2%
O=C(Nc1cccc(C(=O)O)c1)/C(=C\c1ccccc1)NC(=O)c1cccc2ccccc12
    nt | 9% | 3% | nt | 3% | -2% | 7% | 1%
CN1C2CCC1CC(NC(=O)c1ccc([N+](=O)[O-])cc1)C2 (configuration not stated)
    nt | 4% | 0%[46.1 µM] | nt | 1%[46.1 µM] | -8% | -12% | 0%
COc1ccc(CNC(=O)COc2ccc(F)cc2)cc1
    nt | -7% | ? | nt | 20%[46.1 µM] | 6% | -6% | 0%
O=C(CCCn1c(=O)c2cccn2c2cccnc21)NCc1ccccc1Br
    -4% | nt | 17%[46.1 µM] | 5.4% | nt | nt | -19% | nt
COc1cc(-c2c(C#N)c(N)nc3c2CCCC3)ccc1O
    -2% | -1% | -10% | -1.3% | -27% | -15% | ? | 5%
Cc1ccc(S(=O)(=O)c2cc3ccccc3nc2N)cc1
    nt | nt | 1% | nt | -22%[46.1 µM] | -11% | -1% | 5%

Each structure is followed by: Cruzain inh noDet | NS1 inh | LASV entry inh | Cruzain inh Det | MARV entry inh | RE007 growth inh | StopGo reporter | SARS PLpro yeast
Cc1cc(O)c(/C=N/Nc2ccccc2Cl)c(=O)o1
    ? | -27% | -2% | -1.9% | ? | 151% | 31%[activator] | -4%
CC(=O)c1ccc(NC(=S)NNC(=O)c2ccccc2[N+](=O)[O-])cc1
    nt | 2% | 16% | nt | 16%[46.1 µM] | 4% | 13% | 0%
O=C(CN1C(=O)c2ccccc2S1(=O)=O)Nc1ncc([N+](=O)[O-])s1
    nt | nt | 14% | nt | 27% | -28% | 8% | 10%
O=C(Cn1cc(C(F)(F)F)cc(Cl)c1=O)Nc1ccc(N2CCOCC2)cc1
    nt | nt | -11% | nt | -14%[46.1 µM] | -6% | -2% | 2%
CN(Cc1c(C(=O)N/N=C/c2cc(F)ccc2F)nnn1-c1nonc1N)C1CCCCC1
    nt | -2% | nt | nt | nt | -7% | -12% | 0%
COc1ccc(C(=O)NC(=S)Nc2ccc(CN3CCOCC3)cc2)cc1Br
    nt | -7% | nt | nt | nt | -3% | ? | 28%
N#C/C(=C(/O)CCl)c1nc(-c2ccccc2)cs1
    nt | -2% | 3% | nt | -5%[46.1 µM] | -13% | -14% | -1%
